Source: PubChem (National Center for Advancing Translational Sciences (NCATS))
VDR inh = Inhibitors of the vitamin D receptor (VDR): qHTS; Potency, µM, inactives show max response, negative = inhibition, most hits filed as inhibitors; Vitamin D3 receptor (Homo sapiens), P11473; VDR-SRC2-3 peptide fluorescence polarization, 2 h; actives 0.93% (n = 400,000); active = well fitted inhibition curve with a large enough effect; inconclusive = small, poorly fitted or top-dose-only effect, or another doubt; inactive = no such curve, though single readings can be large or run the other way; also: series mostly up to about 120 µM
Target sequence (P11473 whole entry, looked up): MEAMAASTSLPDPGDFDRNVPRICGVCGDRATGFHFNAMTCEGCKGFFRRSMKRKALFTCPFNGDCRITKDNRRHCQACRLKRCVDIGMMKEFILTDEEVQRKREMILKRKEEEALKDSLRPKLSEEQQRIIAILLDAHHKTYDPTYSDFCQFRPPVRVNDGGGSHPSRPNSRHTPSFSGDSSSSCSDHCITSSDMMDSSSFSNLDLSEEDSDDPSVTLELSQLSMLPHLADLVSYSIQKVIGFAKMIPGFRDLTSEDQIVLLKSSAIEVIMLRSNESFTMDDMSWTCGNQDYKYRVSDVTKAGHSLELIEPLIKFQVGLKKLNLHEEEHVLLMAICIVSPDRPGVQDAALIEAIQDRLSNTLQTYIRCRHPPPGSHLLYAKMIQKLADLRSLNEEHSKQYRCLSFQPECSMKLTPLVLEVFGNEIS
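Compounds are added to VDR with labelled SRC2-3 coactivator peptide and held 2 h at room temperature. Inhibition of the VDR–peptide interaction is then read as a change in fluorescence polarization.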
Active calls of the source: *; ? = inconclusive; & = joins results of further samples. % is scaled to controls: 0 for no effect and ±100 for the full control effect; potency is read from the fitted curve at half-maximal effect. A portion of the library; count on the stated rates, not on these rows.

SMILES,VDR inh
Cn1c(=O)c([N+](=O)[O-])c(NCCCn2ccnc2)c2ccccc21,2.3%
COc1cc(C(=O)Nc2cccc(-c3nnc(-c4ccco4)o3)c2)ccc1OC(C)=O,2.7%
COc1cc(NC(=O)CSc2nc(-c3ccco3)cc(C(F)(F)F)n2)cc(OC)c1OC,2.2%
CCn1c(=O)c2ccccc2n(CC(=O)NCCC2=CCCCC2)c1=O,-10.1%
Cn1c(SCC(=O)Nc2sccc2C(N)=O)nnc1-c1ccncc1,-2.4%
COc1ccc(-c2csc(NC(=S)NC(=O)/C=C/c3ccc(C(C)C)cc3)n2)cc1OC,-9.2%
CCC(C)NC(=O)c1ccc(N2CCC3(CC2)OCCO3)c([N+](=O)[O-])c1 (stereo not drawn),1.1%
O=[N+]([O-])c1cccc(S(=O)(=O)c2ccc(N3CCCCC3)c([N+](=O)[O-])c2)c1,7.0%
Cn1c(CNC(=O)OC(C)(C)C)nnc1SCC(=O)N1CCOCC1,-7.2%
Cc1ccc(NC(=O)C2CCC(CNS(=O)(=O)c3cccc4nsnc34)CC2)c(C)c1 (stereo not drawn),-18.3%
CC1(C)CC(CCNC(=O)CCl)(c2ccccc2)CCO1 (stereo not drawn),-0.6%
COc1ccccc1C1(O)C(=O)Nc2ccc(C)cc21 (stereo not drawn),-17.7%
COc1ccccc1CCNC(=O)Cc1c(C)c2c(cc(C)c3c(C)coc32)oc1=O,11.7%
CC1CN(C(=O)COC(=O)c2ccc(Cl)nc2)CC(C)O1 (stereo not drawn),6.7%
CC1Cc2ccccc2N1C(=O)c1ccc2c(c1)OCO2 (stereo not drawn),14.7%
COc1cccc(C2C(C(=O)c3ccc(C)o3)=C(O)C(=O)N2CCN2CCOCC2)c1 (stereo not drawn),-5.0%
NC(=O)c1nn(-c2ccccc2)nc1NC(=O)CN1CCCCC1,12.9%
Cc1cc(C)n(CCCNC(=O)Cn2nnnc2CN2C[C@@H](C)O[C@@H](C)C2)n1,-19.5%
O=C(NCCCn1ccnc1)c1nc(Cn2ccc([N+](=O)[O-])n2)no1,-15.7%
N/C(COc1ncn(-c2ccccc2)n1)=N\S(=O)(=O)c1ccccc1,-5.8%
COc1ccc(OC)c(NC(=O)c2ccc(NS(C)(=O)=O)cc2)c1,-6.6%
COC(=O)c1ccccc1NC(=O)N1CCC(n2c(C)nc3cccnc32)CC1,15.6%
CCN1c2ccccc2NC2N=C(OC)C(c3ccccc3)C21 (stereo not drawn),?
O=C(NCCn1cc(SCc2ccc(Cl)cc2)c2ccccc21)c1cccs1,-15.7%
Cc1ccc(CNC(=O)c2cc3c(s2)-c2ccc(Cl)cc2SC3)cc1,1.7%
Cc1ccccc1NC(=O)CC(NCc1cccnc1)C(=O)O (stereo not drawn),2.6%
CC1CN(CC(O)COc2ccccc2C(C)(C)C)CC(C)O1 (stereo not drawn),-14.6%
N#C/C(Cn1c[n+](NC(=O)Nc2ccccc2)cn1)=N/O,-7.5%
O=C(NNS(=O)(=O)c1ccccc1C(F)(F)F)c1cccc(S(=O)(=O)Nc2ccccc2Cl)c1,-9.7%
CN(C)Cc1c(C(=O)Nc2ccccc2)[nH]c2ccccc12,-1.3%
COc1ccc(NC(=O)CSc2nnc(C3CC3)n2C)cc1S(=O)(=O)N1CCCCC1,-17.8%
Cc1cc(Nc2ccc(F)cc2C)n2ncnc2n1,-26.4%
CN(C)c1nc(-c2cccc(C#N)c2)nc2ccccc12,-26.9%
CN1CCC(=NNC(=O)C(=O)Nc2cccc(Br)c2)CC1,70.8µM*
COc1ccc(OC)c(NC(=O)C(CCSC)NS(=O)(=O)c2cccs2)c1 (stereo not drawn),-4.1%&-15.6%
CCOc1ccc2c(c1)[N+](C)(C)C(C)(C)C=C2C,2.3%
CCCN1CC(=O)N2C(c3ccccc3)c3[nH]c4ccccc4c3C[C@H]2C1=O (stereo partly drawn),0.4%
Cc1ccc(C(=O)NCC(=O)OCc2cc(=O)n3c(C)csc3n2)cc1,4.1%
CCOCCCNC(=O)CN1C(=O)NC(Cc2c[nH]c3ccccc23)C1=O (stereo not drawn),-15.2%
CCCCCC(=O)Nc1ccc(S(=O)(=O)Nc2nccnc2OC)cc1,-6.4%
Cc1ccc(S(=O)(=O)N2C(=O)C(c3ccccc3)SC2=Nc2ccccc2)cc1 (stereo not drawn),?
C/C=C(/CCC1NCCc2c1[nH]c1ccccc21)[Si](C)(C)C (stereo not drawn),-12.8%
Cc1cc(NC(=O)c2cccc(S(=O)(=O)N3CCCCC3)c2)no1,-21.8%
CCN(/C=N/S(=O)(=O)c1ccc(Cl)cc1)CC,-10.6%
Cc1cccc(C(=O)N2c3nc(-c4ccco4)nn3C3(CCCCC3)[C@@H]3CCCC[C@@H]32)c1,-3.2%
COc1ccc2oc(C(=O)OCC(=O)N3CCC(C)CC3)c(C)c2c1,2.7%
COc1ccc(S(=O)(=O)N(C)C[C@H]2Oc3ccc(NC(=O)Nc4ccc5c(c4)OCO5)cc3CC(=O)N([C@@H](C)CO)C[C@@H]2C)cc1,-4.3%
Cc1ccc2nc(-c3ccccc3)cc(C(=O)N(C)CC(=O)Nc3ccccc3Br)c2c1,-21.6%
CC1CN(Cc2ccccc2)c2ccccc2NC1=S (stereo not drawn),-22.0%
COc1ccc(-c2nnc(SCC(=O)c3cc(C)n(Cc4cccs4)c3C)o2)cc1,15.1%

Other results follow:
SMILES,VDR inh
CCn1c(C(=O)NCc2ccc(F)cc2)cc2oc3ccccc3c21,10.5%
COc1ccc(CNC(=O)C(C)N(Cc2ccccc2OC)C(=O)c2snc(C(N)=O)c2N)cc1 (stereo not drawn),-12.2%
O=c1c(=Nc2ccccc2O)c(=O)c2ccccc12,?
c1csc(-c2nn3c(Cn4nnc5ccccc54)nnc3s2)c1,13.6%
O=C(O)C(Cc1ccc(Cl)cc1)NS(=O)(=O)c1ccc(Cl)cc1 (stereo not drawn),10.1%
CCN1CCn2c3c(c4cc(C)ccc42)CCCC31 (stereo not drawn),-11.3%
O=C(c1ccc2c(c1)N(Cc1ccc(F)cc1)C(=O)c1ccccc1S2=O)N1CCOCC1 (stereo not drawn),-18.0%
CCCCNC(=O)CSc1nnc(-c2ccc(S(=O)(=O)N3CCCC3)cc2)n1C,5.6%
CN(c1ccccc1C(=O)NCc1ccco1)S(C)(=O)=O,-15.7%
CCOCCCNC(=O)c1ccc2c(c1)N(CC)C(=O)c1ccccc1S2=O (stereo not drawn),8.2%
CCCCNC(=O)N1CCCC(C(=O)c2cc(C)c(OC)c(C)c2)C1 (stereo not drawn),-7.8%
Cc1cccc(OCCCn2c(CCNC(=O)C3CCCCC3)nc3ccccc32)c1,-1.1%
O=C(c1ccc2c(c1)OCO2)N1CCN(c2ccc(Cl)cc2)CC1,-2.8%
C/C(=N\NC(=O)C(O)(c1ccccc1)c1ccccc1)c1ccc(C)o1,2.9%
Cc1ccc(S(=O)(=O)N2CCN(C(=O)C3CCN(C(=O)c4ccccc4C)CC3)CC2)cc1C,19.3%
COc1ccccc1OCCC(=O)OCCN1C(=O)c2ccccc2C1=O,8.8%
C=C(C)C(=O)Nc1cccc(C2=NOC3(C2)C[C@@H](C(N)=O)N(C(=O)C2(C)CC2)C3)c1 (stereo partly drawn),6.8%
Cc1cc(Br)ccc1OCC(=O)NNC(=O)c1cnccn1,-0.7%
COC(=O)c1ccc2nc(NC(=O)C3CCCCC3)sc2c1,9.9%
COc1cc(/C=N/Nc2cc(C)nc(N)n2)ccc1O,-5.5%
CC(=O)c1sc(NC(=O)c2ccc(Br)o2)nc1C,6.2%
CCc1ccc(NC(=O)CSc2nnc(-c3cc4occc4n3C)n2-c2ccccc2C)cc1,12.3%
Cc1ccc(C)c(C(C)NC(=O)c2ccccc2Br)c1 (stereo not drawn),0.6%
Cc1ccccc1NC(=S)N1CCN(c2ccccc2)CC1,-5.7%
COc1cccc(NC(=O)CCCNC(=O)Cn2cnc3sc(C)c(C)c3c2=O)c1,-3.1%
Nn1cnnc1N/N=C/c1cccc(Cl)c1Cl,?
COc1cc(CNc2ccc3[nH]c(=O)[nH]c3c2)cc(Cl)c1OCC(=O)NC(C)(C)C,-4.6%
O=C(O)c1ccc(COc2ccc([N+](=O)[O-])cc2)o1,-8.6%
CN1C/C(=C/c2ccsc2)C(=O)/C(=C/c2ccsc2)C1,?
CC(Sc1nnc(CNC(=O)c2ccccc2F)n1C)C(=O)Nc1nccs1 (stereo not drawn),-15.1%
O=C(Nc1cccc(F)c1)[C@@H](c1ccccc1)N1Cc2ccccc2C1=O,-22.1%
O=C(CSc1nc(-c2ccc(F)cc2)cs1)N1CCN(C(=O)c2ccco2)CC1,-14.8%
CCCCNC(=O)C1(O)c2ccccc2NC(=O)N1c1ccc(Cl)cc1 (stereo not drawn),13.1%
C=CCc1cccc(C=Nc2cccn3cc(-c4ccccc4)nc23)c1O,-5.8%
Cc1nn(-c2ccccc2)c(C)c1C(=O)NCc1ccccc1F,-0.8%
O=C(CC(c1ccc(F)cc1)c1ccco1)N1CCCC1 (stereo not drawn),-12.9%
O=C(CN(C1CCCCC1)S(=O)(=O)c1ccc(F)cc1)Nc1ccc2c(c1)OCO2,-7.3%
CCOc1ccc(CC(=O)C2C(=O)CCCC2=O)cc1OCC,-15.9%
CN(C)c1ccc(C(=O)NC2(N3CCC3=O)CCCC2)cc1,16.7%
COC(=O)c1c(C)oc(C)c1S(=O)(=O)Nc1ccccc1,-15.9%
COc1ccc(-c2ccc(NS(=O)(=O)c3cc(C)c(C)cc3C)cc2)nn1,6.8%
N#Cc1cccc(OCC(=O)NC(=O)NCc2ccccc2)c1,4.4%
Nn1c(SCc2cccc(Cl)c2)nnc1-c1ccncc1,2.0%
O=C(COC(=O)c1cccnc1)Nc1ccc(F)cc1,-1.7%
CC(=O)c1ccc(C(=O)N(CCN(C)C)c2nc3c(Cl)cccc3s2)cc1,4.9%
COc1ccc(CNC(=O)c2ccc(NC(=O)N3CCSc4ncccc43)cc2)c(OC)c1,-2.1%
O=C(NC1CCCCC1)C(c1ccc(F)cc1)N(CCc1ccccc1)C(=O)CN1C(=O)c2ccccc2S1(=O)=O (stereo not drawn),-12.3%
O=C(O)c1nn(CCSc2ccccc2F)c(=O)c2ccccc12,1.9%
CCc1ccccc1NC(=O)CSc1n[nH]c(C)c1[N+](=O)[O-],-0.5%
Cc1ccc(N2CC(C(=O)OCC(=O)c3ccc(F)cc3)CC2=O)cc1 (stereo not drawn),-9.4%

Further results follow:
SMILES,VDR inh
Cc1ccccc1-n1c(-c2csc3ccccc23)n[nH]c1=S,-12.5%
CC1CCN(S(=O)(=O)c2nnc(NC(=O)COc3ccccc3F)s2)CC1,21.4%
O=C(COC(=O)/C=C/c1ccc(F)cc1)Nc1ccc2[nH]c(=O)[nH]c2c1,-4.2%
Cc1cc(C)n(CC(O)COc2ccccc2Br)n1 (stereo not drawn),-1.8%
COc1cccc2cc(C(=O)OCc3ccccc3)c(=O)oc12,7.4%
Cc1cccc(-c2cc(NC(=O)C(C)(C)C)n(-c3ccccc3)n2)c1,9.2%
COc1ccc(N2CCC(CNC(=S)Nc3cccc(C)c3)C2)cc1 (stereo not drawn),-15.2%
COc1ccc(C(=O)NCc2c(CC(C)C)oc(C)c2C(=O)O)cc1,14.1%
COc1ccc2cc(C(=O)N3CCc4ccccc43)[nH]c2c1,-0.4%
O=C(NCc1ccccn1)c1cc(-c2ccc(Br)cc2)nc2ccccc12,-4.3%
O=C(C[C@@H]1C/C=C\CC[C@@H](Cc2ccc(F)cc2)C(=O)OC[C@@H]2CCCN2C1=O)NCCO,-18.1%
Cc1[nH]c(=O)[nH]c(=O)c1S(=O)(=O)N(C)Cc1ccccc1,-4.1%
CCC(C)Sc1nc2c(c(=O)n1C)SC(C)C2 (stereo not drawn),-18.6%
CCNC(=S)N1CCCC(c2nc3ccc(C)cc3[nH]2)C1 (stereo not drawn),0.0%
CC#CC[N+](C)(C)CCCCCCCCCC,-12.1%
CN(C(=O)CC1C(=O)NCCN1Cc1ccc(F)c(F)c1)C1CCOCC1 (stereo not drawn),0.9%
CN=C(c1ccc(C)cc1)n1c(=S)nc(-c2ccc(C)cc2)n(C)c1=S,5.7%
O=C(O)c1cccc(-n2cccc2/C=C2\SC(=O)N(Cc3ccccc3F)C2=O)c1,-3.7%
CC(=O)Nc1cccc(NC(=O)CSc2nn3c(=O)c(C)nnc3s2)c1,-19.9%
CC(C)C(=O)NS(=O)(=O)c1ccc(NS(C)(=O)=O)cc1,?
